NS1 function inh – influenza NS1 inhibition; AID 2326; S. cerevisiae slowed by influenza A NS1, growth recovery by OD600; Potency, µM (doses to about 46.1 µM), for the others: top-dose activity, positive = more growth; 0.4% of 270,000 active; active means well fitted rising curve with a large enough effect; inconclusive means small, poorly fitted or top-dose-only effect; inactive means no such curve, though single readings can be large or run the other way; also: nearly all actives have a fitted effect of over 50% in size
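Growth recovery, yeast-based: influenza A NS1 expressed in S. cerevisiae causes slow growth, and suppressors are detected by OD600. The parent strain without NS1 is used as positive control.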
Cruzain inh Det – inhibitors of Trypanosoma cruzi cruzain with detergent; purified cruzain, Z-FR-AMC fluorescence, 0.01% Triton; Potency, µM, for inactives: max response, negative = inhibition, usual class: inhibitors; AID 1478; 0.43% of 200,000 active;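 also: plate controls were neutral wells for no effect and buffer without enzyme for full effect; nearly all actives have a fitted effect of over 40% in size; top concentration of the series not given in the record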
Target sequence (P25779 123-467 limits assumed): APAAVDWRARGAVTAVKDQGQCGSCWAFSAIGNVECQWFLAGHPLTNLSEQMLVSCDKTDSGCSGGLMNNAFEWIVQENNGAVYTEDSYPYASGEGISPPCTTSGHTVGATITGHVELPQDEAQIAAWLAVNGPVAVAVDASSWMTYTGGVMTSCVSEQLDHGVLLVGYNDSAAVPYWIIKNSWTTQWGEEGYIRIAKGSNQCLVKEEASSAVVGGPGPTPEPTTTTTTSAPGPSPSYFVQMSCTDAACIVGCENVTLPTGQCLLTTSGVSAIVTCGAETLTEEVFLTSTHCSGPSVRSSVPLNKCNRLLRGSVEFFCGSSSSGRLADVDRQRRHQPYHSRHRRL
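Detergent-containing run (0.01% Triton X-100) in acetate buffer pH 5.5 with 5 mM DTT: enzyme at 1.5 nM final, 15 min compound preincubation at room temperature, then 2 uM Z-FR-AMC substrate. Activity taken as 60 s fluorescence increase at 360/450 nm.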
SARS PLpro yeast – blocks SARS-CoV papain-like protease in a yeast assay; S. cerevisiae expressing SARS-CoV PLpro, growth rescue; control for the full effect not named in the record; 0.19% of 330,000 active; Potency, µM (titrated, usually from 32.9 µM), for inactives: top-dose activity, positive = growth rescue; AID 485353; active means well fitted rising curve with a large enough effect; inconclusive means small, poorly fitted or top-dose-only effect; inactive means no such curve, though single readings can be large or run the other way; also: 0% is about no effect; nearly all actives have a fitted effect of over 55% in size; growth read by luminescence after 48 h
LASV entry inh – blocks Lassa virus binding to or entry into cells; Lassa virus pseudotype entry inhibition, cell reporter; control for the full effect not named in the record; Potency, µM (top dose mostly 37.9 µM), for inactives: at the top dose activity change, negative = inhibition, most hits filed as inhibitors; 1.2% of 300,000 active; active means well fitted inhibition curve with a large enough effect; inconclusive means small, poorly fitted or top-dose-only effect, or effect the other way; inactive means flat fitted curve, though single readings scatter; tested in HEK293 cells; also: % is scaled to controls: 0 for no effect and ±100 for the full control effect; nearly all actives have a fitted effect of over 50% in size; luciferase read-out
Cruzain inh noDet – blocks cruzain activity in detergent-free assay; purified cruzain, Z-FR-AMC fluorescence, no detergent; 2.3% of 200,000 active; P25779; Potency, µM, inactives show max response, negative = inhibition, most hits filed as inhibitors;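 also: plate controls were enzyme without inhibitor for no effect and buffer without enzyme for full effect; nearly all actives have a fitted effect of over 40% in size; top concentration of the series not given in the record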
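Detergent-free condition (0.00005% Triton X-100) in acetate buffer pH 5.5 with DTT. 1.5 nM enzyme and compound were pre-mixed 15 min, then 2 uM Z-FR-AMC substrate added; reaction progress from fluorescence change between first and third reads (60 s).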
MARV entry inh – Marburg virus entry inhibition. Marburg virus pseudotyped entry inhibition, cell reporter; control for the full effect not named in the record; about a third of the inactives were read at about 46 µM. Potency, µM (series often up to 37.8 µM), for the others: at the highest dose activity change, negative = inhibition, most hits filed as inhibitors. 1.8% of 300,000 active. AID 540276; active = well fitted inhibition curve with a large enough effect; inconclusive = small, poorly fitted or top-dose-only effect, or effect the other way; inactive = flat fitted curve, though single readings scatter; tested in HEK293 cells; about a fifth of its hits are not listed in these tables; also: % is scaled to controls: 0 for no effect and ±100 for the full control effect; luciferase read-out
2A StopGo – FMDV 2A StopGo reporter, luciferase signal | human cells with a luciferase reporter of 2A StopGo recoding; control for the full effect not named in the record | Potency, µM (doses to about 57.9 µM), without a hit: top-dose signal change, negative = less light | 1.2% of 410,000 active; active = well fitted falling curve with a large enough effect; inconclusive = small, poorly fitted or top-dose-only effect; inactive = no such curve, though single readings can be large or run the other way; tested in HEK293T cells; also: % is scaled to controls: 0 for no effect and ±100 for the full control effect; nearly all actives have a fitted effect of over 45% in size; luciferase light after 4 h
RE007 growth inh – less growth of the S. pombe RE007 Vpr strain. AID 651644. S. pombe RE007 Vpr strain, BacTiter-Glo ATP luminescence, 24 h; control for the full effect not named in the record. Potency, µM (highest dose often 92.2 µM), for the others: top-dose activity change, negative = less growth. 0.21% of 360,000 active; active = well fitted falling curve with a large enough effect; inconclusive = small, poorly fitted or top-dose-only effect; inactive = no such curve, though single readings can be large or run the other way;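 also: % is scaled to controls: 0 for no effect and ±100 for the full control effect; nearly all actives have a fitted effect of over 50% in size; the assay follows cell death caused by Vpr and the record does not say whether a fall means rescue or toxicity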
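Fission yeast strain RE007, carrying one chromosomally integrated HIV-1 vpr copy, was seeded at OD 0.01 in PMG+AL medium with 23 nL pinned compound. After 24 h at 30 °C and 99% humidity, viability was read by BacTiter-Glo luminescence.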
* marks the source's active call; other numbers are inactive results; ? = inconclusive; . = no result given; & = joins results of further samples; [ ] = dose if it differs, or a comment. Unless noted, calls follow the shape of the dose curve; as a rule, active = well fitted curve in the direction sought with a large enough effect; inconclusive = small, poorly fitted or top-dose-only effect, or another doubt; inactive = no such curve, though single readings can be large; an effect the other way counts as inactive or inconclusive. Potency is read from the fitted curve at half-maximal effect. Hits appear at their usual frequency. About 4.6% of those tested had a hit in this group.

Molecule,NS1 function inh,Cruzain inh Det,SARS PLpro yeast,LASV entry inh,Cruzain inh noDet,MARV entry inh,2A StopGo,RE007 growth inh
CCOc1ccc(CN2CCN(CC(O)Cn3c4ccccc4c4ccccc43)CC2)cc1 (stereo not given),-44%,0.0%,-11%,?,8%,?,-5%,-9%
Cc1cc(C)n(-c2nncn2NC(=O)c2ccc(Cl)cc2O)n1,4%,-2.4%,1%,-1%,4%,-9%,0%,4%
COc1cccc(CNC(=O)CSc2nc(=O)[nH]c3c2CCC3)c1,.,0.0%,.,9%[46.1 µM],-15%,.,-24%,.
Fc1ccc(Oc2ncccn2)c(F)c1,15%,-2.4%,-3%,6%,-2%,6%[46.1 µM],1%,12%
Cc1c(NS(=O)(=O)c2ccc(Br)cc2)c(=O)n(-c2ccccc2)n1C,4%,.,9%,.,.,.,13%,2%
CCOC(=O)C1CCCN(C(=O)c2cc3c(=O)n4ccccc4nc3s2)C1 (stereo not given),9%,.,-5%,-9%,.,?,20%,2%
O=C(NCCCCNC(=O)c1ccccn1)c1ccccn1,-1%,.,0%,.,.,.,12%,-8%
O=C(CSc1ccsc1[N+](=O)[O-])N1CCCCC1,.,.,1%,3%,.,?,25%,-6%
CC(C)CC1(C(=O)NCc2ccccn2)C=CCN1C(=O)c1ccccc1 (stereo not given),-44%,-0.7%&2.4%,2%,4%,9%&-3%,-1%,0%,-16%
CS(=O)(=O)N1CCC(C(=O)NCCN2CCN(Cc3ccccc3)CC2)CC1,15%,-1.9%,2%,18%,-16%,16%,.,-14%
Cc1cccc(NC(=O)Cn2nc(N3CCN(c4ccccc4)CC3)ccc2=O)c1C,.,-0.9%,.,?,?,.,-19%,.
Cc1ccc(S(=O)(=O)N2CCC(C(=O)OCC(=O)N3CCCCC3C)CC2)cc1C (stereo not given),.,.,-2%,8%,.,0%,-6%,-7%
Cc1ccc(Nc2c3c(nc4ncnn24)CC(C)CC3)cc1 (stereo not given),8%,-5.7%,2%,0%,-9%,-22%,?,8%
COc1ccc(OC)c(NC(=O)Cn2cc(C(=O)c3ccccc3)c3ccccc32)c1,.,-5.6%,.,?,?,?,-20%,.
Cc1ccc(C)c(C(=O)COC(=O)c2cc([N+](=O)[O-])ccc2N2CCOCC2)c1,.,.,2%,12%,.,1%,-26%,-15%
COc1ccc(CC(=O)Nc2ccc3c(c2)CCC3)cc1S(=O)(=O)N1CCOCC1,-12%,-4.3%,1%,-5%,?,-5%,2%,7%
COc1ccc(-c2nc(CN3CCC(C(=O)NCCCN4CCN(c5ccccc5F)CC4)CC3)c(C)o2)cc1OC,.,-1.6%,.,?,-6%,4.5µM*,-34%,.
O=C(OCc1cccc2ccccc12)c1ccc2c(=O)[nH]c(CN3CCOCC3)nc2c1,-14%,-0.7%,2%,25%,?,-15%&-15%,-2%,-6%
COC(=O)CN1C(=O)[C@H]2[C@@H](c3ccc(C)o3)N3C(=O)CN(Cc4ccccc4)C(=O)[C@@]3(Cc3ccccc3)[C@H]2C1=O,4%,.,-5%,.,.,.,-3%,12%
C=Cc1ccc(Cn2c(=O)n(C)c(=O)c3sccc32)cc1,-2%,.,-10%,-32%[46.1 µM],.,?,?,23%
COc1cccc(C2CC(c3cccs3)=NN2C(=O)CSC2=NN3CCCC(=O)N=C3S2)c1OC (stereo not given),-11%,-15%,0%,.,?,.,-29%,16%
O=C(Nc1ccc(CN2CCCCC2)cc1)c1cccc(F)c1,3%,.,0%,17%,.,?,19%,1%
Nc1nonc1C(=O)OCC(=O)N1CCCCC1,-2%,-0.9%,9%,18%,-2%,11%,-8%,10%
Oc1c(CN2CCCC(C(F)(F)F)C2)cc(Cl)c2ccccc12 (stereo not given),-4%,.,-13%,?,.,?,-27%,?

Sorted by formula weight (high to low): part of the list above
Molecule,NS1 function inh,Cruzain inh Det,SARS PLpro yeast,LASV entry inh,Cruzain inh noDet,MARV entry inh,2A StopGo,RE007 growth inh
COC(=O)CN1C(=O)[C@H]2[C@@H](c3ccc(C)o3)N3C(=O)CN(Cc4ccccc4)C(=O)[C@@]3(Cc3ccccc3)[C@H]2C1=O,4%,.,-5%,.,.,.,-3%,12%
O=C(OCc1cccc2ccccc12)c1ccc2c(=O)[nH]c(CN3CCOCC3)nc2c1,-14%,-0.7%,2%,25%,?,-15%&-15%,-2%,-6%
Nc1nonc1C(=O)OCC(=O)N1CCCCC1,-2%,-0.9%,9%,18%,-2%,11%,-8%,10%

More results
Molecule,NS1 function inh,Cruzain inh Det,SARS PLpro yeast,LASV entry inh,Cruzain inh noDet,MARV entry inh,2A StopGo,RE007 growth inh
Cc1sc2nc3c4ccccc4c(NCc4ccco4)nn3c(=O)c2c1C,-6%,-8.9%,-1%,?,13%,12%&12%,70%[activator],0%
CC(C)CCNC(=O)CCCc1ccccc1,1%,.,1%,2%[46.1 µM],.,3%[46.1 µM],17%,-2%
CCOc1ccc(C2CC(=O)N(Nc3ccc([N+](=O)[O-])cc3[N+](=O)[O-])C2=O)cc1 (stereo not given),-1%,.,1%,?,.,13%,-20%,-7%
CCOC(=O)N1CCC(Nc2c(NCCCN3CCN(CC)CC3)c(=O)c2=O)CC1,2%,-2.2%,-1%,0%,14%,?,0%,2%
CSCCC(NC(C)=O)C(=O)OCC(=O)N(c1ccccc1)c1ccccc1 (stereo not given),5%,-2.3%,27%,11%,13%,-2%,?,14%
O=C(O)C(Cc1c[nH]c2ccccc12)N1C(=O)C2C3c4ccccc4C(c4ccccc43)[C@@H]2C1=O (stereo not given in full),1%,.,0%,9%[46.1 µM],.,24%[46.1 µM],-9%,3%
CC(=O)c1c(N2CCN(c3ccccn3)CC2)nc(=S)n(-c2ccccc2)c1C,10%,.,1%,9%[46.1 µM],.,-8%[46.1 µM],-3%,2%
CC(C)(C)OC(=O)N1CCC(c2c(C(=O)NCc3ccccn3)cnn2-c2ccccc2)CC1,.,-0.3%,.,?,6%,.,-2%,.
CCCCc1nc(NCCO)c(C#N)c2c1CCCC2,-7%,.,0%,-28%[46.1 µM],.,?,?,6%
CC(=O)Nc1ccc(NC(=O)CSc2ccc(C)cc2)cc1,2%,2.8%,17%,3%,0%,12%,32%[activator],4%
Cc1cc(=O)[nH]c(NN=Cc2cc(Br)ccc2O)n1,.,.,.,10µM*,.,2µM*,-4%,-18%
O=C(Nc1ccccc1Cl)c1cnccn1,-16%,-0.4%,-1%,20%,0%,?,9%,-16%

Complete entries from above. Values in the order: NS1 function inh | Cruzain inh Det | SARS PLpro yeast | LASV entry inh | Cruzain inh noDet | MARV entry inh | 2A StopGo | RE007 growth inh
Results for CC(=O)c1c(N2CCN(c3ccccn3)CC2)nc(=S)n(-c2ccccc2)c1C → 10% | . | 1% | 9%[46.1 µM] | . | -8%[46.1 µM] | -3% | 2%
Results for O=C(O)C(Cc1c[nH]c2ccccc12)N1C(=O)C2C3c4ccccc4C(c4ccccc43)[C@@H]2C1=O (stereo not given in full) → 1% | . | 0% | 9%[46.1 µM] | . | 24%[46.1 µM] | -9% | 3%
Results for O=C(Nc1ccccc1Cl)c1cnccn1 → -16% | -0.4% | -1% | 20% | 0% | ? | 9% | -16%
Results for CCOc1ccc(C2CC(=O)N(Nc3ccc([N+](=O)[O-])cc3[N+](=O)[O-])C2=O)cc1 (stereo not given) → -1% | . | 1% | ? | . | 13% | -20% | -7%
Results for CSCCC(NC(C)=O)C(=O)OCC(=O)N(c1ccccc1)c1ccccc1 (stereo not given) → 5% | -2.3% | 27% | 11% | 13% | -2% | ? | 14%

Other structures.
Molecule,NS1 function inh,Cruzain inh Det,SARS PLpro yeast,LASV entry inh,Cruzain inh noDet,MARV entry inh,2A StopGo,RE007 growth inh
O=C(O)c1ccc(S(=O)(=O)N2CCCC2)cc1,4%,.,2%,-4%,.,-3%,-5%,-2%
CC(NCc1cc(Br)ccc1OCC(N)=O)C12CC3CC(CC(C3)C1)C2 (stereo not given),3%,.,12%,.,.,.,-26%,-3%
CCC(=O)c1ccc(OCc2ccc(C(=O)OC)cc2)cc1,12%,-2.3%,1%,?,10%,10µM*,?,16%
CCOc1ccc(N(Cc2cc3ccc(C)cc3[nH]c2=O)C(=O)COC)cc1,-11%,0.3%,8%,-3%,-3%,-1%[46.1 µM],-13%,4%
CCS(=O)(=O)N1CCC(C(=O)Nc2ccc3c(c2)CCC3)CC1,-5%,.,9%,.,.,.,36%[activator],-10%
O=C(Oc1ccccc1)N1CCCC1,0%,.,-1%,.,.,.,-15%,-4%
CCOC(=O)C1=NN(c2ccccc2)C2=NC(C)=C(C(=O)OC)C(c3cccs3)N12 (stereo not given),.,.,.,4%,.,-3%,18%,4%[3.69 µM]
Cc1ccc(-n2nc3c(N4CCC(C(=O)NCCc5ccccc5)CC4)nnc(C)c3c2C)cc1,.,-1.4%,.,-9%[46.1 µM],14%,.,?,.
Cc1ccc(C)c(NS(=O)(=O)c2cc3c4c(c2)C(C)C(=O)N4CCC3)c1 (stereo not given),.,-2.5%,.,-1%[46.1 µM],2%,.,24%,.
COC(=O)C1=C(C)NC(=S)NC1c1sccc1C (stereo not given),.,.,-3%,-25%,.,-28%[46.1 µM],-2%,4%
Cc1ccnc(Nc2nc(-c3ccc(O)c(O)c3)cs2)c1,27%,.,-5%,?,.,?,-14%,-3%
Cc1nn(CC(=O)NCc2cccnc2)c(C)c1[N+](=O)[O-],0%,.,1%,3%[46.1 µM],.,8%[46.1 µM],-7%,4%
O=C(COC(=O)c1ccccc1OC(F)F)Nc1ccc(N2CCCCC2)cc1,.,.,2%,4%,.,?,1%,?

Screening results as filed in PubChem BioAssay.
